Sa RN4220 lethal = kills Staphylococcus aureus RN4220; S. aureus RN4220 growth, OD600, 16 h; inhibition, % (concentration not given with the values); 330,000 compounds, 0.33% hits;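 active means z-score of -3 or lower and OD600 up to 0.18 on both plates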;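 further: plate controls were untreated cells for no effect and reference antibiotic for full effect; stock transfer was 100 nL into about 80 µL; one replicate is shown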
BJeLR lethal = BJeLR cell viability loss. BJeLR (HRASV12) viability, CellTiter-Glo ATP luminescence, 48 h; reference of the scale not given here. inhibition, % (test concentration not listed). 300,000 compounds, 0.17% hits. AID 1554;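 active means replicate mean above 50%; inconclusive means above 50% but judged a plate artefact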;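 further: 50 nL library stock added to about 25 µL; numbers are from one replicate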
ugtP null kill = kills S. aureus RN4220 lacking UgtP | S. aureus RN4220 ugtP deletion, OD600 growth, 16 h; some inactives read as strong as hits | growth inhibition, % (no concentration beside the values) | 330,000 compounds, 0.54% hits | AID 1259309;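 active means z-score under -3 and OD600 up to 0.15 on both plates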;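 further: plate controls were untreated wells for no effect and antibiotic for full effect; wells of about 80 µL received 100 nL stock; the first replicate is given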
Bead autofluor = compound fluorescence in toxin protease inhibitor counterscreen; AID 624483; compound autofluorescence counterscreen, microsphere flow cytometry; stronger effect = higher value; fluorescence intensity (test concentration not listed); 360,000 compounds, 3.1% hits;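 active means at least 3 SD above the mean of all compounds, about 16000 in these data; inconclusive means too few beads counted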;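 further: 100 nL of 1 mM stock went into each well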
Mtb hypoxia rep = inhibitors of hypoxia-regulated fluorescent reporter in Mycobacterium tuberculosis; M. tuberculosis hypoxia-regulated fluorescent reporter, fluorescence; fluorescence inhibition, % (concentration not given with the values); 300,000 compounds, 0.1% hits; AID 1159583;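 active means 35 to 45% if threefold the growth effect, above 45% if 1.5-fold the growth effect; inactive means the rest, general growth blockers included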;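 further: wells of about 50 µL received 100 nL stock; 0% = vehicle wells and 100% = reference inhibitor wells; whole bacteria with a GFP reporter of the hypoxia response; strong numbers were not always called active; many hits fall short of the cut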
PrP 5UTR inh = suppresses PrP 5' UTR mRNA reporter expression | cell-based PrP 5' UTR mRNA reporter, plate reader | inhibition, % (test concentration not listed) | 340,000 compounds, 0.35% hits;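 active means every replicate at 50% or more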;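 further: 0 = median of the neutral control wells; tested in H4 reporter cells; numbers are from one replicate; inactives centre near -14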
Mtb hypoxia rep growth = second read-out of Mtb hypoxia rep, no call of its own (marks repeat the call); growth inhibition, %; measured here: M. tuberculosis growth (absorbance);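 0% = vehicle and 100% = reference antibiotic; read after six days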
Numbers without * were called inactive; u = inconclusive; x = no result given.

SMILES	Sa RN4220 lethal	BJeLR lethal	ugtP null kill	Bead autofluor	Mtb hypoxia rep	Mtb hypoxia rep growth	PrP 5UTR inh
CCC(C)(C(=O)NC1CCCC1)N(C(=O)c1cnccn1)c1c(C)n(C)n(-c2ccccc2)c1=O (configuration not stated)	2.1	-9	-7	21671*	3	14	-24
COc1cc(C(=O)NCc2ccc(C)cc2)ccc1OCc1c(C)noc1C	0.6	-4	-1	3047	11	10	-26
COc1ccc(OCC(O)CNC(=O)Nc2cccc3ccccc23)cc1 (configuration not stated)	2.2	4	7	5979	19	8	-20
Cc1ccc(-c2csc(NC(=O)c3cccc([N+](=O)[O-])c3)n2)cc1	-0.7	3	0	4152	x	x	-3
CCn1c(SCC(=O)Nc2cccc(NC(C)=O)c2)nnc1C(C)C	0.0	8	3	4916	x	x	-28
C/C(=N\NC(=O)c1ccccc1C)c1cccnc1	x	1	x	3707	x	x	-1
COc1ccc(NC(=O)CN2C(=O)NC(CC(C)C)C2=O)cc1S(=O)(=O)N1CCOCC1 (configuration not stated)	0.5	x	0	8499	-7	3	-22
COC(=O)c1ccc(CNC(=O)C2CCC(=O)N(C3CCCCCC3)C2)cc1 (configuration not stated)	1.1	4	8	5770	6	0	-17
CNC(=S)N/N=C/c1c(C)nn(-c2ccc(F)cc2)c1Cl	x	3	x	4596	x	x	-65
CC(C)(C)/C(Cn1cncn1)=N\OC(=O)Nc1ccc(Cl)cc1	x	6	x	2584	x	x	-15
CCCCC(=O)Nc1ccc(NC(=O)c2ccc([N+](=O)[O-])cc2)cc1OC	3.2	3	2	2090	10	5	-16
C=CCc1cccc(CNn2cnnc2)c1O	3.0	4	6	4273	5	2	-29
CCCCn1c(=O)[nH]c(=O)c2c1nc(-c1ccc(OCCC)c(OCC)c1)n2CCOC	5.6	4	12	3630	3	2	-14
COC(=O)c1c(C)oc(C)c(C(=O)OC)c1=O	1.1	-3	6	2188	x	x	-13
O=C(NCC(c1ccco1)N1CCCC1)c1sc2ccccc2c1Cl (configuration not stated)	3.4	4	0	5938	-4	-1	-20
CC1CCN(C(=O)c2cc(Cl)nc3ccccc23)CC1	2.0	-4	-2	2651	12	9	-30
C[C@H](CO)N1C[C@H](C)[C@@H](CN(C)C(=O)Nc2ccccc2)Oc2ccc(NC(=O)CCC(F)(F)F)cc2C1=O	-7.1	x	-7	3799	-7	8	-1
O=C(CSc1ccccn1)Nc1ccc2c(c1)C(=O)c1ccccc1C2=O	10	-2	9	2078	9	5	-70
Cc1cc2oc(=O)c3c(c2cc1OC(=O)c1ccco1)CCCC3	3.5	5	-8	2397	-5	0	-24
O=C(NCc1ccc(C(F)(F)F)cc1)C1CC(c2ccccc2[N+](=O)[O-])=NO1 (configuration not stated)	1.1	-2	14	3683	12	17	-10
O=[N+]([O-])c1cccc(-c2nnc3c4ccccc4c4ccccc4n23)c1	4.4	2	9	4026	4	7	13
CC(=O)Oc1ccc(/C=N/NC(=S)Nc2ccccc2)cc1	x	1	x	10883	x	x	-68
C/C(=N\Nc1ccc2nncn2n1)c1cccs1	x	-3	x	5358	x	x	-16
CC1CC(N(C(=O)C2CC2)c2ccccc2)c2ccccc2N1C(=O)C1CC1 (configuration not stated)	4.3	-4	-1	9136	0	11	-3
CCCc1nnc(NC(=O)CC(=O)OCC)s1	3.0	8	1	2955	x	x	-14
COc1ccc(N=C2NC(=O)/C(=C\C=C\c3ccco3)S2)cc1	6.2	17	-9	4826	1	11	-22
Cc1ccc(SCCC(=O)NN=Cc2ccccc2O)cc1	-1.8	x	21	x	8	12	x
CC(C)(C)Oc1ncc(Br)c(OC(C)(C)C)n1	5.4	2	3	11240	17	10	-17
O=S(=O)(Nc1ccncc1Cl)c1ccccc1	11	-3	3	2918	x	x	-11
COCCNC(=O)/C(=C/c1ccccc1Cl)c1ccccc1	1.1	-5	15	1970	12	0	-4
COc1ccc(-c2cc(C(F)(F)F)nc(N3CCOCC3)n2)cc1	-4.2	1	53	11034	2	6	-8
COc1ccc2nc(N=Nc3ccc(O)c4ccccc34)sc2c1	11	37	-8	2298	11	4	19
COc1cc(NC(=O)CSC(=S)N2CCCC2)c(OC)cc1Cl	1.5	-2	3	6480	1	0	12
Cc1c(C)n(Cc2ccc(F)cc2)c2ccc(C(=O)N3CCN(c4ccccn4)CC3)cc12	12	-1	-15	u	-4	-3	-8
CCOc1ccc2nc(SCC(=O)N(C)C)[nH]c2c1	-3.2	1	-9	9438	7	1	-28
CCN(CC(=O)Nc1ccc(NC(C)=O)cc1)C(=O)c1ccc2c(c1)OCO2	9.6	x	5	3738	9	3	-17
CCC(C)N(C(=O)COc1ccccc1C#N)C1CCS(=O)(=O)C1 (configuration not stated)	2.2	-3	0	5399	1	-4	-21
COc1ccc(CCNCC(O)COc2cccc(C(C)=O)c2)cc1OC (configuration not stated)	0.8	-1	11	3560	-3	4	-26
Cc1csc2nnc(N)n12	8.4	2	10	3362	x	x	0
Cc1cccc(NC(=O)COc2ccccc2)c1	4.5	1	-1	26330*	13	10	-45
O=C(COC(=O)CNC(=O)c1ccccc1)NCCNC(=O)COC(=O)CNC(=O)c1ccccc1	3.3	x	8	3674	5	2	-12
COc1ccc(CCC2(C)NC(=O)N(C(C)C(=O)N3c4ccccc4CC3C)C2=O)cc1 (configuration not stated)	0.0	x	2	3512	1	0	-19
Cc1cccc(NC(=O)CSc2cc(C(=O)c3nccn3C)c3ccccc3n2)c1	2.8	-6	-1	2653	-1	4	-28
CC(=O)NCCn1c(SCC(=O)OCc2ccccc2)nc2ccccc2c1=O	5.6	6	-3	6113	-5	-1	-42
COc1ccc(-c2cc(NCc3ccccn3)n3ncnc3n2)cc1	x	5	x	3218	x	x	0
CC(C)Cc1nc2oc3c(N4CCN(C)CC4)ncnc3c2c2c1CCCC2	2.4	-2	7	x	9	8	x
CCCCCCCCCC(=O)N[C@@H]1c2cc(OC)c(OC)cc2C[C@H]1OCc1ccccc1	-1.0	x	4	3716	-7	0	-63
O=C(CN1C(=O)c2ccccc2C1=O)Nc1ccc(S(=O)(=O)N2CCOCC2)cc1	4.6	4	2	4901	4	0	-31
CC(C)(C)c1ccc(C(=O)NCCC(=O)NCc2cccs2)cc1	3.6	-4	-1	5513	7	3	-39
O=C(O)C/C=C(/NC(=O)OCc1ccccc1)C(=O)OCc1ccccc1	-4.5	-4	21	3324	3	10	-28
COc1ccc(NC(=O)Cn2cnc3c(nnn3-c3ccc(C)cc3)c2=O)cc1	5.2	2	6	x	4	8	x
COCC(=O)Nc1nc(-c2ccc(C)cc2)c(C)s1	3.7	-10	-8	2948	4	6	-17
COc1ccccc1-c1noc(CCC(=O)NC2CCCC2)n1	2.8	-6	3	5738	-8	-1	-17
O=C(Cc1c(F)cccc1Cl)NCC(=O)OCc1ccccc1	6.3	2	6	6706	7	1	-7
Cc1cc(C(=O)N2CCc3c([nH]c4ccccc34)C2c2c(F)cccc2Cl)no1 (configuration not stated)	1.9	-5	1	3458	3	2	-12
CCC(C(=O)Nc1ccc2c(c1)OCCO2)c1ccccc1 (configuration not stated)	1.7	-2	11	2304	12	1	-12
CC(=O)c1c2c3c(cccc3n(C)c1=O)C(=O)c1ccccc1-2	1.6	-4	5	x	-3	-5	x
Cc1ccc(S(=O)(=O)Nc2nc3ccccc3nc2NCc2ccc3c(c2)OCO3)cc1C	x	2	x	2139	x	x	-6
O=C(c1ccc(F)cc1)C1CCN(C(=S)Nc2ccc(F)cc2)CC1	2.0	-7	6	3823	18	14	0
CCN(CC(=O)Nc1c(F)cccc1F)C(=O)CCNC(=O)c1ccc([N+](=O)[O-])cc1	-0.9	-1	2	u	-4	9	-15
(next part)
SMILES	Sa RN4220 lethal	BJeLR lethal	ugtP null kill	Bead autofluor	Mtb hypoxia rep	Mtb hypoxia rep growth	PrP 5UTR inh
CN(c1ccc(C(=O)N2CCc3ccccc3C2)cc1)S(C)(=O)=O	-1.5	-6	-3	4651	x	x	-33
COc1ccc(NC(=O)c2nc[nH]c2C(=O)N2CCC(C)CC2)cc1	8.2	7	6	3922	1	-2	-29
COc1ccc(NC(=O)c2ccc3c(=O)n(CC4CCCO4)c(=S)[nH]c3c2)c(OC)c1 (configuration not stated)	5.6	-19	7	5966	-3	11	-8
Cn1nnc(NC(=O)c2cccc(F)c2)n1	-2.5	3	-1	u	-5	1	-9
CCCOc1ccc(CSC(=N)N)cc1C(=O)OC	2.0	-4	7	3983	-4	-1	-31
COc1ccc(NC(C)=O)cc1NC(=O)c1ccc(C#N)cc1	2.3	5	2	4191	-4	8	2
COc1ccc(OC)c(-n2c(-c3cccc(O)c3)n[nH]c2=S)c1	0.3	2	15	8960	-1	-4	-3
CCOP(=O)(OCC)c1nc(-c2cccc3ccccc23)oc1NCc1ccccc1	3.8	6	6	17554*	7	6	-5
COc1ccccc1CCNC(=O)C(=O)NCC1OCCN1S(=O)(=O)c1cccs1 (configuration not stated)	1.5	1	2	6068	5	2	-17
COC(=O)C1=C(c2c(C)noc2C)CC2CCC1N2C(=O)N1CCCCC1 (configuration not stated)	9.3	x	4	x	17	7	x
COc1cccc(NC(=O)c2cccc(Cl)c2)c1	2.0	x	2	3612	11	4	-43
CCc1c(C)nc2cc(C)[nH]n2c1=O	3.6	14	-2	3212	-9	-1	-13
COc1ccc(OC)c(NC(=O)CN(C)CC(=O)Nc2ccccc2Br)c1	22	-7	8	4107	12	5	-12
Cc1ccc(S(=O)(=O)c2nc(S(C)(=O)=O)sc2N2CCCCCC2)cc1	3.8	3	13	4734	-2	-6	3
COC(=O)C1CCN(C(=O)COc2ccc(N(C)S(=O)(=O)c3ccc(C)cc3)cc2)CC1	1.7	x	-8	2930	9	4	-28
Cc1nn(CCOc2ccccc2)c(=O)n1-c1cccc(F)c1	3.8	4	-3	16398*	2	8	-8
COc1ccc(S(=O)(=O)N2CCN(C(=O)c3cc(-c4ccccc4OC)n[nH]3)CC2)cc1	-4.2	-11	-3	5185	x	x	-11
Cn1cc(C[C@H](NC(=O)OC(C)(C)C)C(=O)N[C@H](CO)Cc2ccccc2)c2ccccc21	x	8	x	3036	x	x	-8
O=[N+]([O-])c1ccc(N/N=C/C=C/c2ccco2)cc1	x	0	x	4919	x	x	-55
Cc1c(OCc2nn[nH]n2)ccc2c3c(c(=O)oc12)CCCC3	5.3	-7	11	22827*	8	7	-13
OCCNc1ncnc2c1nnn2Cc1ccccc1	0.0	-3	5	3069	19	11	-18
Fc1ccc(CN2CCN(c3ncccn3)CC2)c(F)c1	5.6	-4	11	4179	10	9	5
Cc1ccsc1C(=O)C1CCCN(Cc2cn(C)nc2C)C1 (configuration not stated)	1.0	-2	-4	1999	7	7	-7
O=[N+]([O-])c1ccc(C2=Nn3cnnc3SC2)cc1	6.6	0	14	x	1	2	-12
O=C(c1ccc(Cl)c(S(=O)(=O)NCc2ccco2)c1)N1CCN(c2ccccc2F)CC1	3.5	5	2	3962	x	x	-9
CN(C)C(=O)NC(Nc1cccc([N+](=O)[O-])c1)C(Cl)(Cl)Cl (configuration not stated)	-6.7	-12	-9	2270	1	9	-17
COc1ccc(C(CNC(=O)c2ccc(OCc3ccccc3)cc2)N2CCOCC2)cc1 (configuration not stated)	-0.6	x	-1	8637	-8	-3	-8

Fetched by structure from the list above:
SMILES	Sa RN4220 lethal	BJeLR lethal	ugtP null kill	Bead autofluor	Mtb hypoxia rep	Mtb hypoxia rep growth	PrP 5UTR inh
CCC(C)(C(=O)NC1CCCC1)N(C(=O)c1cnccn1)c1c(C)n(C)n(-c2ccccc2)c1=O (configuration not stated)	2.1	-9	-7	21671*	3	14	-24
Cc1ccc(SCCC(=O)NN=Cc2ccccc2O)cc1	-1.8	x	21	x	8	12	x
COc1ccc(CCNCC(O)COc2cccc(C(C)=O)c2)cc1OC (configuration not stated)	0.8	-1	11	3560	-3	4	-26
COc1ccc(OCC(O)CNC(=O)Nc2cccc3ccccc23)cc1 (configuration not stated)	2.2	4	7	5979	19	8	-20
O=[N+]([O-])c1ccc(N/N=C/C=C/c2ccco2)cc1	x	0	x	4919	x	x	-55
COc1ccc(NC(=O)c2ccc3c(=O)n(CC4CCCO4)c(=S)[nH]c3c2)c(OC)c1 (configuration not stated)	5.6	-19	7	5966	-3	11	-8
O=C(NCC(c1ccco1)N1CCCC1)c1sc2ccccc2c1Cl (configuration not stated)	3.4	4	0	5938	-4	-1	-20

High-throughput results from PubChem.
